Screening results: PubChem BioAssay, National Center for Advancing Translational Sciences (NCATS)
miR-21 reporter: qHTS Assay for Modulators of miRNAs and/orActivators of miR-21; HeLa miR-21 FLuc reporter, luciferase, 48 h; Potency, µM (series often up to 38.3 µM), for the others: at the top dose reporter change, positive = more light; 340,000 tested, under 10 active; AID 2288, 2010; active = well fitted rising curve with a large enough effect; inconclusive = small, poorly fitted or top-dose-only effect; inactive = no such curve, though single readings can be large or run the other way;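 further: % of control where 0% means no effect; miR-21 action dims this reporter so a rising signal means less miR-21 action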
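HeLa miR-21-FLuc reporter line, endogenous miR-21; 2000 cells/well in DMEM/10% FBS; compound titration up to ~40uM final, 48 h, 37 degree Celsius; luciferase detection reagent, 15 min lysis, CCD luminescence.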
Rango-impB inh: qHTS Assay for Inhibitors of Rango (Ran-regulated importin-beta cargo) - Importin beta complex formation. Importin subunit beta-1 (Homo sapiens), Q14974. Rango CFP/YFP FRET sensor + importin beta, 45 min. Potency, µM (titrated, usually from 92.2 µM), inactives show at the top dose inhibition of complex formation. 340,000 compounds, 0.031% hits; active = rising FRET ratio curve, often small or poorly fitted; inconclusive = mostly compound fluorescence or quenching in the first reads; inactive = flat curves in all reads;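 further: potency means the concentration at half of the fitted maximal effect; 0% = DMSO wells and 100% = buffer wells lacking importin beta; nearly all actives have a fitted effect of over 15% in size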
Target sequence (Q14974 whole entry, looked up): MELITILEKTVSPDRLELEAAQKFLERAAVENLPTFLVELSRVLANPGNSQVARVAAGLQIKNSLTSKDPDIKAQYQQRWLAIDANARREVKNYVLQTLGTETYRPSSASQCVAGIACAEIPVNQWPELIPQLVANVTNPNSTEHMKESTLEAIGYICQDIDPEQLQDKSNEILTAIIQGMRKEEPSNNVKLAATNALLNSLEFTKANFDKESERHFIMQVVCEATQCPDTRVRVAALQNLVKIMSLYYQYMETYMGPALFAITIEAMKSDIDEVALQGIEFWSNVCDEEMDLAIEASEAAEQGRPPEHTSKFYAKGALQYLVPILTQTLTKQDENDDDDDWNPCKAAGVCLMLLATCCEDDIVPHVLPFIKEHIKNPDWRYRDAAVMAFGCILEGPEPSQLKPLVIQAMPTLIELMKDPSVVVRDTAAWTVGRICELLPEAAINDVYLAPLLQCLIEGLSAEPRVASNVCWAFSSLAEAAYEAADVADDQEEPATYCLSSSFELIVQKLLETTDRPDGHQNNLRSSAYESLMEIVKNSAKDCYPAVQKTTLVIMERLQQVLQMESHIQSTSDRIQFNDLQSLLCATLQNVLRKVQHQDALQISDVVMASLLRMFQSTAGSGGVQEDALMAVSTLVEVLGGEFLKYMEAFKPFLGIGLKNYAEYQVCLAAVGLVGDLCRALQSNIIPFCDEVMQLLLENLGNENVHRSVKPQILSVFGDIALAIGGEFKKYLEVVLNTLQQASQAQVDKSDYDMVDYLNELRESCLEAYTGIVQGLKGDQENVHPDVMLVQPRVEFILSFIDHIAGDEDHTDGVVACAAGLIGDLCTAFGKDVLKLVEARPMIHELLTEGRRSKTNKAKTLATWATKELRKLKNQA
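FRET biosensor Rango (snurportin 1 IBB between N-terminal EYFP and C-terminal Cerulean), 50 nM in PBS/1 mM DTT/0.02% Tween-20/0.1% BSA, preincubated 5 min RT with compound; 0.125 microM importin beta added, 45 min RT, CFP/YFP FRET ratio read.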
GLA inh pH 4.5: qHTS Assay for Inhibitors of Human alpha-Galactosidase at pH 4.5 | 230,000 tested, under 10 active | activity change, negative = inhibition, % at 105 µM | purified enzyme, 4-MU-alpha-Gal fluorescence, pH 4.5 | AID 1467, 2008 | Alpha-galactosidase A (Homo sapiens), P06280; inconclusive = small, poorly fitted or top-dose-only inhibition, or a rising curve; inactive = flat fitted curve, though single readings scatter; no compound was filed as active;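 further: 0% = full activity with enzyme and -100% = basal without enzyme; dose as in the result columns while the protocol names 77 µM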
Rango release inh: qHTS Assay for Inhibitors of RanGTP induced Rango (Ran-regulated importin-beta cargo) - Importin beta complex dissociation | Snurportin-1 (Homo sapiens) + GTP-binding nuclear protein Ran (Homo sapiens) + Importin … | Biochemical FRET Rango-importin beta, RanGTP-induced dissociation | Potency, µM (doses to about 46.1 µM), for inactives: at the highest dose activity change, negative = inhibition | 340,000 compounds, 0.071% hits; active means falling FRET ratio curve, often poorly fitted, with flat reads before Ran was added; inconclusive means other falling curves, or compound fluorescence or quenching; inactive means flat or rising ratio curve;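 further: potency means the concentration at half of the fitted maximal effect; % of control where 0% means no effect; nearly all actives have a fitted effect of over 45% in size; -100% = wells without RanGTP and RCC1; the record marks most hits as doubtful in a second field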
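Quantitative HTS using a FRET biosensor: 0.1 uM Rango, 0.25 uM importin beta, 0.6 uM Ran, 2 mM GTP, 0.2 uM RCC1 final, PBS with DTT, Tween-20 and BSA. Post-read taken 45 min after Ran addition.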
* marks the source's active call; other numbers are inactive results; ? = inconclusive; . = not tested or not shown; & = joins results of further samples. A portion of the library; count on the stated rates, not on these rows.

SMILES | miR-21 reporter | Rango-impB inh | GLA inh pH 4.5 | Rango release inh
O=c1cc(CN2CCc3ccccc3C2)nc2sccn12 | -9% | 1.4% | 8 | -6%
COc1cc(C(=O)NNC(=O)Nc2ccc([N+](=O)[O-])cc2)cc(OC)c1OC | -7% | 2.2% | -5 | 2%
Cn1c2ccccc2c2cc(C(=O)OCC(=O)N3CC(=O)Nc4ccccc43)sc21 | 13% | -0.5% | -11 | 0%
COc1ccc(NS(=O)(=O)c2ccc(C)c(C(=O)N3CCC3)c2)cc1 | . | -3.6% | . | 0%
CC(=O)[C@@]1(O)CC[C@H]2[C@@H]3C[C@H](C)C4=CC(=O)C=C[C@]4(C)[C@@]3(F)[C@@H](O)C[C@@]21C | -31% | -2.1% | . | 2%
Cc1cc(C)c(C2C(C#N)=C(N)Oc3n[nH]c(C)c32)cc1CN1CCOCC1 (stereo unspecified) | -6% | -3.4% | 2 | -2%
O=C(c1cncs1)N1CCCC(CNS(=O)(=O)c2cccs2)C1 (stereo unspecified) | -5% | 0.5% | 3 | 7%
COc1ccc(NC(=O)CSc2nnc(-c3cccs3)n2Cc2ccco2)cc1OC | 1% | -3.3% | 2 | 15%
CCCC(=O)Nc1ccccc1NC(C)=O | -6% | -0.5% | -14 | -8%
O=C1COc2ccc(C(=O)COC(=O)c3cc(S(=O)(=O)NCc4ccccc4)ccc3O)cc2N1 | -1% | -1.4% | 0 | -24%
COc1ccc(-n2nc(C(=O)c3cccs3)cc(-c3nc4ccccc4[nH]3)c2=N)cc1 | -9% | 7.5% | -11 | -6%
CN(C)c1ccccc1C(=O)N1CCCC(C(=O)c2ccc3ccccc3c2)C1 (stereo unspecified) | 9% | 3.0% | 9 | -9%
COc1ccc(-n2c(C)nnc2SCC(=O)N2C(C)CCCC2C)cc1 (stereo unspecified) | -14% | 12% | 2 | -1%
O=C(Nc1ccc2oc(-c3ccccc3F)nc2c1)c1ncn[nH]1 | -40% | -1.1% | -2 | 4%
COc1ccc(/C=N/NC(=O)c2ccccc2O)cc1COc1ccccn1 | -5% | ? | -3 | -9%
COc1ccc(-c2nc3ccccc3o2)cc1OC | -50% | -0.2% | . | -9%
COCC(C)n1c(C)cc(C(=O)COc2ccc(C)nc2[N+](=O)[O-])c1C (stereo unspecified) | 0% | -0.7% | 7 | 5%
O=C(CCC1CCCC1)c1c(O)c2ccccc2oc1=O | -12% | 0.4% | 2 | -4%
COc1ccc(CN2CCCCC2c2cccnc2)c(OC)c1C (stereo unspecified) | -4% | -0.6% | 3 | -1%
COc1ccc(N(CC(=O)Nc2ccc3c(c2)OCCO3)S(=O)(=O)c2cccnc2)cc1 | -3% | -1.6% | 2 | -14%
O=C(COC(=O)c1ccc(OC(F)(F)F)cc1)Nc1ncccn1 | . | -2.8% | . | -11%
O=C(O)/C=C/C(=O)NCc1csc2ccccc12 | -6% | -0.1% | -2 | 0%
Cc1sc(NC(=O)c2cc3ccccc3oc2=O)c(C(=O)OC(C)C)c1-c1ccccc1 | 0% | -2.3% | 11 | 19%
Cc1[nH]c(-c2ccco2)nc1C(=O)O | -2% | ? | -4 | 0%
CN1CCN(C2=C(NS(=O)(=O)c3cccs3)C(=O)c3ccccc3C2=O)CC1 | 6% | -3.1% | -3 | 8%

Whole records, quoted from the list.
`O=C(c1cncs1)N1CCCC(CNS(=O)(=O)c2cccs2)C1` (stereo unspecified) is entered as miR-21 reporter: -5%; Rango-impB inh: 0.5%; GLA inh pH 4.5: 3; Rango release inh: 7%
`COc1cc(C(=O)NNC(=O)Nc2ccc([N+](=O)[O-])cc2)cc(OC)c1OC` is entered as miR-21 reporter: -7%; Rango-impB inh: 2.2%; GLA inh pH 4.5: -5; Rango release inh: 2%

Continued.
SMILES | miR-21 reporter | Rango-impB inh | GLA inh pH 4.5 | Rango release inh
COc1ccc2[nH]c(C(=O)N(C)Cc3ccccc3)c(C)c2c1 | -1% | ? | . | -10%
Cc1cccc(N2C(=O)CC(N3CCN(c4ccccn4)CC3)C2=O)c1 (stereo unspecified) | -3% | ? | 8 | -10%
CCOc1ccc(NC(=O)CSc2nnc(C3CC3)n2C)cc1 | -4% | 2.0% | 7 | 13%
CSCCC(NC(=O)c1ccccc1)C(=O)OCC(=O)c1ccc[nH]1 (stereo unspecified) | 1% | 5.1% | 2 | 13%
COc1ccc(OC)c(NC(=O)c2cc(-c3cc(C)c(C)cc3O)n[nH]2)c1 | -17% | 1.3% | . | -8%
COc1ccccc1NC(=O)N1CCCC1C(=O)NCc1cccs1 (stereo unspecified) | 0% | 3.5% | . | -7%
COCCCNC(=O)/C=C/c1cccc(Cl)c1 | -19% | -4.2% | 5 | 0%
CCOc1ccc(C2=Nn3c(CC)nnc3SC2)cc1 | . | 3.4% | . | -4%
CC(C)c1c(C(=O)N/N=C2\CCc3ccccc32)nnn1-c1nonc1N | -3% | 3.1% | . | -3%
O=C(COC(=O)c1ccccc1)NCc1cccs1 | 2% | 1.4% | 3 | 0%
NNc1ccc2c(C(F)(F)F)cc(C(F)(F)F)nc2n1 | -12% | ? | -3 | 16%
C/C(N)=C(/C#N)C(=O)CSc1nc2ccccc2c(=O)n1Cc1ccc(F)cc1 | 9% | 4.8% | -19 | 4%
Cc1ccc(Nc2cc(C)nc3nc(C)nn23)c(C)c1 | -1% | -2.4% | 3 | 4%
CCOC(=O)N1CCN(C(=O)CCn2nc(-c3ccc(Cl)cc3)ccc2=O)CC1 | 1% | 0.3% | 5 | 21%
COc1cccc(/C=N/n2c(COc3ccccc3)n[nH]c2=S)c1OC | -16% | -0.7% | . | -13%
CCCCCCC/C=N/Nc1nnc(Cc2ccccc2)c(=O)[nH]1 | -2% | -0.8% | . | 0%
O=C1C(=O)N(CCCn2ccnc2)C(c2ccc(Cl)cc2)/C1=C(\O)c1ccc2c(c1)OCCO2 (stereo unspecified) | -5% | 4.9% | . | 27%
COc1nccc(Nc2ccccc2)c1C#N | -26% | -0.4% | -1 | 5%
COc1ccc(S(=O)(=O)/C(C#N)=C/Nc2ccc(NC(C)=O)cc2)cc1 | -1% | 0.1% | . | 10%
Cc1ccccc1NC(=O)c1oc(=O)c2ccccc2c1-c1ccccc1 | 1% | -0.1% | -1 | -13%
CCc1ccc(-c2cc(C(F)(F)F)n3nc(C(=O)Nc4cnn(Cc5ccc(C)cc5)c4)cc3n2)s1 | 0% | ? | -1 | ?
Cc1ccc(S(=O)(=O)N(CC(=O)N2CCOCC2)c2ccc(Br)cc2)cc1 | 1% | -0.1% | . | -24%
O=C(NN1CCOCC1)c1ccccc1Br | -2% | -0.2% | . | -19%
COc1ccc(N2CCN(C(=O)CSc3nnnn3-c3ccc4c(c3)OCCO4)CC2)cc1 | 18% | -0.2% | -3 | -9%
Cc1cc(OCc2cc(C(=O)N(C)C3CCOCC3)no2)cc(C)c1Cl | -59% | 0.1% | . | 6%
New compounds follow.
SMILES | miR-21 reporter | Rango-impB inh | GLA inh pH 4.5 | Rango release inh
NCCCC(=O)N1c2ccccc2Sc2ccccc21 | -6% | -3.7% | 7 | 3%
COc1ccccc1NC(=O)c1ccccc1-c1nc(-c2ccccc2OC)no1 | 10% | 1.7% | -15 | 2%
CCN(CC(=O)NCCc1ccc(F)cc1)Cc1nc2ccccc2c(=O)[nH]1 | 1% | 1.7% | 4 | -6%
O=C(CN1C(=O)NC2(CCCC2)C1=O)NCCN1C(=O)S/C(=C\c2ccccc2F)C1=O | . | 3.9% | . | -14%
O=C(NCc1cccs1)C1CCCN1C(=O)Nc1ccccc1Cl (stereo unspecified) | 0% | 3.3% | . | 44%
CC1(C)CC(=O)C(CC(=O)NC(=O)NCc2ccccc2)=C(O)C1 | -7% | -3.3% | 2 | -11%
COc1cc(OC)cc(C(=O)N[C@H](C(=O)OCC(=O)Nc2ccc(C(N)=O)cc2)C(C)C)c1 | 0% | 0.6% | 2 | 19%
CN(Cc1ccccc1)C(=O)COc1ccccc1 | -47% | 2.9% | 0 | -5%
Cc1nc(N/N=C\c2ccc3c(c2)OCO3)sc1C | -48% | -0.6% | . | -14%
NC(N)=NC(N)=Nc1ccccc1 | . | 5.7% | 0&-1&-6 | 2%
O=C(NCCCN1CCOCC1)c1cc(-c2ccc(Cl)s2)nc2ccccc12 | . | ? | . | -28%
CCC1CCc2c(sc(NC(=O)C3c4ccccc4Oc4ccccc43)c2C(N)=O)C1 (stereo unspecified) | -2% | -1.0% | -5 | 1%
CN(NC(=O)c1ccccc1F)c1ncccc1[N+](=O)[O-] | -3% | -6.8% | -6 | -1%
CCOC(=O)c1c(C)oc2ccc(OCC(=O)C(C)(C)C)cc12 | -2% | 2.7% | -12 | -9%
Cc1cc(C(=O)OCC(=O)NCc2ccccc2)c(C)o1 | 2% | -1.0% | -4 | 8%
CCC(C(=O)OCC(=O)Nc1ccc(SC(F)F)cc1)c1ccccc1 (stereo unspecified) | -6% | 1.1% | -4 | -15%
Cc1ccc(NC(=O)c2sc3ncn(CC(=O)N4CCN(c5ccccn5)CC4)c(=O)c3c2C)cc1Cl | -4% | -0.7% | . | -3%
CCOC(=O)CC1=C(C(=O)OCC)C(c2ccc(OC)c(OC)c2)C(C#N)=C(N)O1 (stereo unspecified) | 0% | ? | -4 | -10%
COc1ccc(NC(=O)Nc2ccc(C)cc2OC(F)F)cc1OC | 16% | 0.3% | -11 | 33%
CC(Cc1ccccn1)NC(=O)c1ccc(OC2CCN(CCc3ccccc3)CC2)cc1 (stereo unspecified) | -29% | -1.5% | . | 8%
Cc1ccc(S(=O)(=O)Nc2ncnc3sc(C)c(C)c23)cc1 | . | -0.1% | . | -2%
COc1cccc(N2CCN(Cc3ccsc3)CC2)c1 | -28% | 2.0% | -12 | 2%
Nc1cc(C(=O)c2cccs2)ccc1Cl | -33% | 8.2% | -8 | 40%
COc1ccc(-c2cc(CNC(=O)CN(C)Cc3ccccc3)on2)cc1 | -4% | -1.6% | 4 | -3%
CC(CCc1ccccc1)NC(=O)Cc1ccccc1 (stereo unspecified) | -5% | -0.2% | -23 | -7%
(list continues)
SMILES | miR-21 reporter | Rango-impB inh | GLA inh pH 4.5 | Rango release inh
CCCCn1c(N)c(N(CCOC)C(=O)c2cnc(C)cn2)c(=O)[nH]c1=O | . | 0.5% | . | 8%
CCOc1ccc(CNC(=S)N/N=C/c2ccncc2)cc1 | -25% | 0.9% | -19 | -5%
O=C(Nc1ccc(N2CCOCC2)cc1N1CCOCC1)c1ccc(Br)cc1 | 0% | 0.1% | . | 3%
O=C(NCCCN1CCOCC1)c1cc(S(=O)(=O)N2CCOCC2)ccc1Cl | . | -2.5% | . | 3%
CC1(C)CC(N=c2cc(-c3ccccc3)oc3ccc(Cl)cc23)CC(C)(C)N1 | ? | -0.8% | -18 | 0%
Cc1nn(C(C)C(=O)NC2CCCCCC2)c(=O)c2nn(-c3ccccc3)c(C)c12 (stereo unspecified) | -23% | 1.3% | . | 3%
CCCOC(=O)Nc1nc2ccccc2o1 | -29% | 0.7% | 5 | -19%
N#Cc1nc(-c2cccs2)oc1NCCN1CCOCC1 | -17% | 0.3% | -8 | -3%
Cc1ccccc1NC(=O)NCc1cccnc1 | . | -0.5% | . | -2%
Cc1noc(C)c1COc1ccccc1C(=O)N(C)CC(=O)Nc1ccc(Cl)c(Cl)c1 | . | -1.6% | . | 14%
COC(=O)CN(C#N)c1nc(NC(C)C)nc(OC)n1 | -3% | 9.5% | -2 | -19%

Fetched by compound from the entries so far:
SMILES | miR-21 reporter | Rango-impB inh | GLA inh pH 4.5 | Rango release inh
N#Cc1nc(-c2cccs2)oc1NCCN1CCOCC1 | -17% | 0.3% | -8 | -3%
O=C(Nc1ccc(N2CCOCC2)cc1N1CCOCC1)c1ccc(Br)cc1 | 0% | 0.1% | . | 3%
Cc1noc(C)c1COc1ccccc1C(=O)N(C)CC(=O)Nc1ccc(Cl)c(Cl)c1 | . | -1.6% | . | 14%
